Vaccinia Venus = inhibitors of vaccinia virus (Venus reporter); Vaccinia virus Venus reporter expression, fluorescence; Potency, µM (series often up to 36.5 µM), for the others: at the highest dose activity change, negative = inhibition, actives largely listed as inhibitors; 0.46% of 330,000 active; active means well fitted inhibition curve with a large enough effect; inconclusive means small, poorly fitted or top-dose-only effect; inactive means no such curve, though single readings can be large or run the other way; tested in A549 cells; note: nearly all actives have a fitted effect of over 30% in size; inactives centre near -10
VACV mCherry inh = vaccinia inhibition (mCherry reporter) | Vaccinia virus mCherry reporter infection, fluorescence; about a quarter of the inactives have no number | Potency, µM (top dose mostly 36.5 µM), for inactives: top-dose activity change, negative = inhibition, usual class: inhibitors | 0.63% of 310,000 active | AID 720579; active = well fitted inhibition curve with a large enough effect; inconclusive = small, poorly fitted or top-dose-only effect; inactive = no such curve, though single readings can be large or run the other way; tested in A549 cells; note: nearly all actives have a fitted effect of over 35% in size; inactives centre near -10
An asterisk follows results filed as active; i = inactive; ? = inconclusive; . = no result given; & = joins results of further samples; [ ] = remark or other dose. % is set by controls: 0 for no effect and ±100 for the full control effect; potency is the fitted concentration of half-maximal effect.

Screens in order: Vaccinia Venus | VACV mCherry inh
Cc1cc(NC(=O)CCN2C(=O)/C(=C/c3ccccc3Cl)SC2=S)no1
  -5% | -11%
Cc1ccc(N=CNc2ccc(C)cc2C)c(C)c1
  0%[7.34 µM] | 0%[7.34 µM]
CC(=O)Nc1ccc(C(=O)NNC(=O)C2C3CCCCC32)cc1 (stereo unspecified)
  3% | 3%
COc1ccc(C(=O)/C=C/c2ccc(OC)cc2OC)c(O)c1
  -15% | -11%
COc1ccc(CNC(=O)CN(C(=O)c2snc(C(N)=O)c2N)c2ccccc2F)cc1
  -17% | -9%
COC(=O)c1ccc(NC(=O)c2ccc(N(C)S(C)(=O)=O)cc2)cc1
  -28% | ?
COC(=O)/C=C(\C)N=Nc1c(O)[nH]c2ccccc12
  -17% | ?
O=[N+]([O-])/C=C1/CCCCCN1
  -12% | -9%
COc1cc2c(-c3ccc4cc[nH]c4c3)c(-c3ccc(C#N)cc3)oc(=O)c2cc1OC
  ? | ?
O=C(Cc1cccc2ccccc12)NNC(=O)c1cccs1
  -6% | -22%
OCCNc1c2c(nc3ccccc13)CCCC2
  5% | -12%
Cc1cc(C)c(NS(=O)(=O)c2ccc3c(c2)NC(=O)CC(=O)N3)c(C)c1
  -11% | -19%
Cc1ccc(C(=O)NNC(=O)c2csc(N3CCOCC3)n2)s1
  -13% | -5%
O=C(/C=C\c1ccco1)Nc1nc(-c2ccccc2)cs1
  -17% | -15%
CCN(CC(=O)Nc1sc2c(c1C#N)CCCC2)CC(=O)NC1CCS(=O)(=O)C1 (stereo unspecified)
  -9% | 24%
CCN(C(=O)COC(=O)CSc1ccc(C)c(C)c1)C1CCS(=O)(=O)C1 (stereo unspecified)
  -1% | -8%
O=C(c1ccccc1C(F)(F)F)N1CCOc2c(cc(-c3nc4ccccc4s3)cc2OC2CCOC2)C1 (stereo unspecified)
  ? | i
CCCC(C)c1nnc(NC(=O)COc2ccc3c(c2)OCO3)s1 (stereo unspecified)
  -13% | 10%
Cc1ccc(NC(=O)CN(C)C(=O)CSc2ccccc2F)cc1
  -12% | -22%
Nc1nc2nc(-c3ccc(F)cc3)cc(C(F)(F)F)n2n1
  -11% | i
Cc1cc(Nc2ccc(C)c(Br)c2)n2nc(C)nc2n1
  -13% | -28%
COc1ccc(-c2cc(CCCC(=O)N3CCN(c4ccc(OC)cc4)CC3)no2)cc1
  -8% | ?
CCOC(=O)c1ccc(NC(=O)C2CCN(S(=O)(=O)Cc3ccccc3)CC2)cc1
  8% | 1%
Cc1cccc(Cn2cc(C=O)c3ccccc32)c1
  -13% | i
Cc1ccc(CN2CCN(CC(=O)NCc3ccccc3Cl)C2=O)cc1
  -12% | -7%
CCc1ccc(N2CC(C)Cn3c2nc2c3c(=O)n(CC(=O)O)c(=O)n2C)cc1 (stereo unspecified)
  8% | 9%
O=C(Nn1cnnc1)C(c1ccccc1)c1ccccc1
  -12% | -15%
COc1ccc(-n2c(-c3ccccc3)nc(=S)c3c2CCCC3)cc1
  -12% | .
Cc1ccc(-c2nc(Nc3ccccc3)n[nH]2)cc1
  -20% | -29%
COc1cccc(CNc2sc3c(c2C(=O)Nc2ccc(OC)cc2OC)CCC3)c1
  1% | -9%

Next structures.
Screens in order: Vaccinia Venus | VACV mCherry inh
CC(NC(=O)Cc1ccccc1F)c1ccc(F)cc1 (stereo unspecified)
  -3% | 5%
CCCCNC(=O)CCC(=O)NNc1nc2ccccc2c2nc(C)nn12
  4%&-17% | -1%&-3%
CCOC(=O)c1c(NC(C)=O)c2c3c(sc2n1Cc1nc(-c2cccc(C)c2)oc1C)CCCC3
  -7% | 2%
O=C1c2ccccc2C(=O)N1c1ccccc1
  -2% | 4%
C=CCOc1ccc(CNc2nccs2)cc1OC
  -11% | .
CC1(C)OC(=O)C2(Cc3ccc(Br)cc3N3CCCCC32)C(=O)O1 (stereo unspecified)
  -6% | -15%
CCOC(=O)C1(C#N)Cc2ccccc2C1
  -6% | -16%
CSc1nnc(-c2ccc(Cl)cc2Cl)o1
  -6% | -22%[1.46 µM]
CC(OC(=O)C1=Cc2ccccc2OC1)C(=O)NCC1CCCO1 (stereo unspecified)
  -10% | -20%
CCN(CC)CCNC(=O)c1cc2c(-c3ccc(Cl)cc3)nn(C)c2s1
  ? | ?
COC(=O)C1=C(C)N(c2ccc(Cl)cc2)/C(=C/c2cccs2)C1=O
  -11% | -17%
COCCOC(=O)C1=C(C)NC(=O)NC1c1c(F)cccc1Cl (stereo unspecified)
  -14% | i
CCOc1cc(/C=N/NC(=O)c2ccncc2)ccc1OS(C)(=O)=O
  -8% | -16%
CCOc1cc(S(=O)(=O)NCCCN2CCOCC2)ccc1F
  -19% | -14%
CC(C)COc1cccc(C(=O)Nc2cc(S(=O)(=O)N3CCOCC3)ccc2N2CCCC2)c1
  -11% | -25%
O=C(CN1C(=O)c2cccc3cccc1c23)Nc1ccccc1C(=O)NCc1ccco1
  -26% | ?
CCOC(=O)CNC(=O)OC1CCN2Cc3ccccc3N=C12 (stereo unspecified)
  -7% | i
O=C(CCC(=O)NCCO)NCCO
  -7% | -2%
CCn1c(O)c(/C=N/NC(=O)c2ccncc2)c(=O)n(CC)c1=S
  -5% | i
CC1(C(=O)NS(=O)(=O)c2ccc(F)cc2F)CCN1C(=O)Cc1ccc(-c2ccccc2)cc1 (stereo unspecified)
  0% | 10%
O=C(C1CC(=O)N(c2ccc(F)cc2)C1)N1CCCCCC1 (stereo unspecified)
  26% | 11%
CSCCC(NS(=O)(=O)c1ccc(Cl)cc1)C(=O)OCc1cccc(Cl)c1 (stereo unspecified)
  -8% | -19%
CCN(c1ccccc1)S(=O)(=O)c1ccc(NC(=O)c2nc(SC)ncc2Cl)cc1
  -7% | -29%
Cc1ccc(/C=N/NC(=O)c2cccc(S(=O)(=O)Nc3cccc(Cl)c3)c2)o1
  ? | -19%
O=C1c2ccccc2C(=O)N1CCCCSc1nc2ccccc2c(=O)n1CCCN1CCOCC1
  12% | -3%
OCCn1nc2c3ccccc3nc-2n(-c2ccccc2)c1=S
  1% | .
NC1=NC(c2ccccc2Cl)n2c(nc3ccccc32)N1 (stereo unspecified)
  -15% | -17%
O=C(COC(=O)CC1CCCC1)Nc1ccc(OC(F)F)cc1
  -8% | i
O=[N+]([O-])c1cccc(S(=O)(=O)NCCCn2ccnc2)c1
  1% | i
CCOC(=O)Cc1nnc(NC(=O)CSc2nnc3c4ccccc4n(C(C)C)c3n2)s1
  -7% | .

Compound profiles, from the list above. Screens in order: Vaccinia Venus, VACV mCherry inh
OCCn1nc2c3ccccc3nc-2n(-c2ccccc2)c1=S in the list: 1%, .
CC1(C)OC(=O)C2(Cc3ccc(Br)cc3N3CCCCC32)C(=O)O1 (stereo unspecified) in the list: -6%, -15%
CCOC(=O)C1(C#N)Cc2ccccc2C1 in the list: -6%, -16%
C=CCOc1ccc(CNc2nccs2)cc1OC in the list: -11%, .
CCOc1cc(/C=N/NC(=O)c2ccncc2)ccc1OS(C)(=O)=O in the list: -8%, -16%

The results go on:
Screens in order: Vaccinia Venus | VACV mCherry inh
CCOC(=O)C1C(c2cccnc2)NC(=O)NC1(O)C(F)(F)F (stereo unspecified)
  -1% | i
NC(=O)C1CCN(S(=O)(=O)c2cc3c4c(c2)CCN4C(=O)CC3)CC1
  -11% | i
CCCCn1nnc(NC(=S)NC(=O)c2cccs2)n1
  2.2µM* | ?
CCCCNc1c(-c2cccc(-c3cc(C(C)=O)cs3)c2)nc2cc(C)ccn12
  ? | -28%
Cc1nccn1-c1c2c(c(C#N)c3nc4ccccc4n13)CCCC2
  -5% | 9%
C=CCn1c(C)cc(C2=NNC(=Nc3ccc(C)cc3)SC2)c1C
  -11% | -15%
O=C(NCCCN1CCOCC1)c1cccnc1SCc1ccccc1Cl
  -12% | -17%
O=C(Nc1ccc(F)cc1)Nc1ccc([N+](=O)[O-])cn1
  -10% | -9%
CCOC(=O)C1CCN(c2cc3c(cc2NC(=O)c2ccc(Cl)cc2)n(C)c(=O)n3C)CC1
  -10% | 0%
Cc1nc(C(=O)Nc2cc(F)cc(Cl)c2)sc1C1(C)CC(c2ccccc2)=NO1 (stereo unspecified)
  ? | -14%
CCCCCCCC(=O)NN1CCOCC1
  -5% | .
CCOC(=O)c1ccc(NC(=O)c2cn(-c3ccccc3)nc2-c2ccc(OC)c(OC)c2)cc1
  0% | -4%
CCOc1cc(S(=O)(=O)N2CCC(Cc3ccccc3)CC2)c(OCC)cc1-n1cnnn1
  -7% | -10%
CC(Sc1ccc(Cl)cc1)C(=O)N(C)CC(=O)Nc1ccc(N2CCOCC2)cc1 (stereo unspecified)
  -9% | ?
Cc1nc(C)c(C(=O)NCc2nc(-c3cccc(NC(=O)c4ccccn4)c3)oc2C)s1
  -29% | ?
CC(C)CCNC(=O)C1CCN(S(=O)(=O)c2ccc3c(c2)CCC(=O)N3)CC1
  -7% | i
CCNC(=O)C1CCN(S(=O)(=O)c2ccc3c(c2)CCCN3C(C)=O)CC1
  2% | 6%
N#CCC(CNc1ncc(C(F)(F)F)cc1Cl)OC(=O)c1ccc(Cl)cc1Cl (stereo unspecified)
  ? | ?
CC(C)c1ccc(NC2CCCN(C(=O)c3cccnc3)C2)cc1 (stereo unspecified)
  -6% | ?
COc1ccc(-c2c(C#N)c(SCC(=O)Nc3ccc(Br)cc3)nc(C)c2C(=O)Nc2ccccc2)cc1
  -7% | -3%
Fc1ccc(NC(=S)NCCc2ccccc2)c(F)c1F
  -27% | -14%
O=C(NCC1CC1)C1Cc2c(-c3cccc(F)c3)ccnc2O1 (stereo unspecified)
  -12% | 15%
COc1ccc(/C=N/NC(=O)C(=O)/C=C2\NC3(CCCC3)Cc3ccccc32)cc1
  ? | ?
COc1ccc(CN(CC(=O)NCc2ccco2)C(=O)CCC(=O)Nc2ccccn2)cc1
  1% | .
O=S(=O)(c1ccc(F)cc1F)N1CCN(c2nc(-c3cccs3)nc3ccccc23)CC1
  ? | -15%
CC(=O)N/C(=C/C(C)C)c1ccccc1
  -12% | i
O=C1CN2C(=Nc3ccc(Br)cc3C2c2ccccc2)CCN1 (stereo unspecified)
  -19% | -17%[1.46 µM]
Cc1ccc(OCc2nnnn2-c2ccccc2)cc1
  -1% | -6%
Cn1c(SCC(=O)N2CCCC2)nnc1-c1ccc2c(c1)OCO2
  1% | -15%
Cc1ccc(S(=O)(=O)N(C)C)cc1NC(=O)/C=C/c1cccs1
  -17% | -24%

(next part)
mol	Vaccinia Venus	VACV mCherry inh
C#Cc1ccc(C(=O)NCc2ccc(N3CCCC3=O)cc2)cc1	-1%	34%[activator]
CCC(=O)N1CCC1(C)C(=O)Nc1ccccc1 (stereo unspecified)	-6%	i
COc1ccc(CN2C(=O)CCC2(C)c2nnnn2-c2ccc3c(c2)OCCO3)cc1OC (stereo unspecified)	-2%	-8%
CCc1ccc(-c2nc(SCC(=O)N(CCOC)c3c(N)n(Cc4ccccc4)c(=O)[nH]c3=O)n[nH]2)cc1	-5%	-13%
CN(C)C(CNC1CC(C)(C)NC(C)(C)C1)c1cccc(F)c1 (stereo unspecified)	3%	-18%
CC1(C(=O)N/N=C/c2ccccc2)CC1(Cl)Cl (stereo unspecified)	-10%	i
O=C(CSc1n[nH]c(=O)n1-c1cccnc1)Nc1ccccc1Cl	-11%	-12%
CCN1C(=O)NC(c2cc(Br)ccc2OC)C(C(=O)OC)=C1C (stereo unspecified)	-6%	-21%
O=C(Nc1ccc2c(c1)OCCO2)c1ccccn1	-7%	-19%
COc1cc(CN(C2CCCCC2C)S(=O)(=O)c2ccc(S(=O)(=O)NC3CC3)cc2)cc(OC)c1OC (stereo unspecified)	-25%	?
COc1cc2c(cc1NC(=O)Nc1ccccc1)oc1ccccc12	?	.
O=C(c1ccc(Cl)cc1)C(CN1CCCCC1)c1ccccc1 (stereo unspecified)	11µM*	?
O=C(CSc1cn(CC(=O)N2CCCCC2)c2ccccc12)Nc1ccc(C(F)(F)F)cc1	-25%	-9%
Cc1ccc(C(=O)N2CC(C)SC2=Nc2cccc(S(=O)(=O)N(C)C)c2)cc1 (stereo unspecified)	?	?
COc1ccc(NC(=O)CN(C)C(=O)C(C)Oc2ccc(Br)cc2)cc1 (stereo unspecified)	-16%	-28%
CC(CNC(=O)CN1C(=O)NC2(CCCCC2)C1=O)c1ccccc1 (stereo unspecified)	-13%	-25%
O=C(O)C1C2C=CC(O2)C1C(=O)Nc1ccccn1 (stereo unspecified)	11%	-14%
COc1ccc(OCCC(=O)NC2CCCCC2)cc1	-9%	i
CCN1C(=O)c2ccc(C(=O)NCc3ccco3)cc2C1=O	-21%	i
COc1ccc(OC)c(CNC(=O)c2ccc3c(c2)c(C)c(C)n3C)c1	-10%	-13%

Copied from the list.
Value for COc1ccc(CN2C(=O)CCC2(C)c2nnnn2-c2ccc3c(c2)OCCO3)cc1OC (stereo unspecified) in Vaccinia Venus: -2%
Value for CC(CNC(=O)CN1C(=O)NC2(CCCCC2)C1=O)c1ccccc1 (stereo unspecified) in VACV mCherry inh: -25%
Value for COc1cc(CN(C2CCCCC2C)S(=O)(=O)c2ccc(S(=O)(=O)NC3CC3)cc2)cc(OC)c1OC (stereo unspecified) in Vaccinia Venus: -25%

Bioassay records as filed in PubChem.
